Source: PubChem
KCNQ2 block: KCNQ2 potassium channel inhibitors, primary screen, cell-based, CHO-K1, FluxOR thallium flux, B-score (AID 2156) | 1.1% of 310,000 active | O88943 | B-score at 10 µM | 20 min; stronger effect = lower value; only compounds with negative scores are shown here; some inactives read as strong as hits;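 active = fluorescence ratio B-score at most minus 3 library SDs, with starting brightness B-score within 2 library SDs, cut at about -5.5 in these data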
Target sequence (O88943 whole entry, looked up): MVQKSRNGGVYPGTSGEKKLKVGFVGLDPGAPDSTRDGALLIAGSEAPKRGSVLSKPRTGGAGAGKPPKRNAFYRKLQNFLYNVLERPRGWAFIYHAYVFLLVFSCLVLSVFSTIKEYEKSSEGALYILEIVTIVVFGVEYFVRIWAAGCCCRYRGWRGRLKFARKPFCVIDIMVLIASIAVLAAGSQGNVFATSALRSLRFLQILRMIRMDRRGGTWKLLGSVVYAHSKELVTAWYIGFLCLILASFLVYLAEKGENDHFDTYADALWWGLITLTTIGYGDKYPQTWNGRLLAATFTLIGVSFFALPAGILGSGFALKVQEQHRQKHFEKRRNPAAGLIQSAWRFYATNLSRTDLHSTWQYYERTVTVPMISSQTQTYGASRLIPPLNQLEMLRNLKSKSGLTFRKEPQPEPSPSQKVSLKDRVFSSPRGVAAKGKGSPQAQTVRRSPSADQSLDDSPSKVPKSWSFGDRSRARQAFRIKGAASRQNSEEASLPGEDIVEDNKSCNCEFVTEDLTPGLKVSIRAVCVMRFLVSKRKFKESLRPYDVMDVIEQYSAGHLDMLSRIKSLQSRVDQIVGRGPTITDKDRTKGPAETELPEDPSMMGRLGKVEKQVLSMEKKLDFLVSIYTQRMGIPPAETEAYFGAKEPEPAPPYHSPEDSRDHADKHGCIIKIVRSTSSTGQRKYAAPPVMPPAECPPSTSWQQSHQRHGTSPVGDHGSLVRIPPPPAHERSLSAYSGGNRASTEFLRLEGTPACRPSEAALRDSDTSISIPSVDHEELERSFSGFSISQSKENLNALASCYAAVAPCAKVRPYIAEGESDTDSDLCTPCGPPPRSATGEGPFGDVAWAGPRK
KCNQ2 block baseline: also measured in KCNQ2 block; calls as there; B-score; measured here: initial fluorescence intensity artifact check;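 brightness before thallium and not channel activity; 0 = typical well and far values either way flag optical interference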
* marks the source's active call; other numbers are inactive results; i = inactive. This is a subset; rates above refer to the full screens.

entry | KCNQ2 block | KCNQ2 block baseline | compound
1 | i | 0.17 | Oc1ccccc1N1CCN(c2ncnc3scc(-c4ccccc4)c23)CC1
2 | i | -1.7 | CN(C)CCNc1nc2sc3c(c2c(=O)n1-c1ccc(F)cc1)CCCCC3
3 | i | -0.03 | CCC(C)NC(=O)CSC1=Nc2ccccc2C2=NC(c3ccccc3)C(=O)N12 (stereo unspecified)
4 | i | 0.13 | O=C(Nc1ccc2c(c1)C(=O)N(CC1CCCO1)C2=O)c1ccc(Cl)c(Cl)c1 (stereo unspecified)
5 | i | 0.04 | Oc1ccccc1C1Nc2cccc3cccc(c23)N1
6 | i | 0.18 | CC(C)CCNC(=O)C1CCN(S(=O)(=O)c2ccc(-n3cnnn3)cc2)CC1
7 | i | -0.9 | CCCC1S/C(=N/N=C/c2ccc(C)cc2)N(Cc2ccc(OC)cc2)C1=O (stereo unspecified)
8 | i | 2.5 | COc1ccccc1-c1ccc(SCc2ccc(F)cc2)nn1
9 | i | 0.23 | CCC(C)NC(=O)C1CCN(S(=O)(=O)N2CCOCC2)CC1 (stereo unspecified)
10 | i | -1.1 | COc1ccc(S(=O)(=O)N2CCOCC2)cc1NC(=O)Cn1nnc2ccccc2c1=O
11 | i | -0.93 | CS(=O)(=O)c1ccc(C(=O)OCc2nnc(-c3ccc(Cl)cc3)o2)cc1[N+](=O)[O-]
12 | i | 0.06 | Cc1cccc(-c2noc(CNC(=O)COc3ccccc3C)n2)c1
13 | i | 0.44 | Cc1cc2c(cc1S(=O)(=O)NCC(C)c1ccccc1)n(C)c(=O)c(=O)n2C (stereo unspecified)
14 | i | 0.69 | N#Cc1nc(COc2ccc(F)cc2)oc1N1CCCCC1
15 | i | -0.58 | O=C(COc1ccc(-n2cnnn2)cc1)NC(=O)NCc1ccccc1
16 | i | -2.7 | COc1cccc(Cn2cnc3c(NS(=O)(=O)c4ccc(Cl)cc4Cl)c(C)c(C)cc32)c1
17 | -7.1* | -0.14* | CCOC(=O)c1ccccc1NC(=O)CSc1nnc(COc2ccccc2C)n1C
18 | i | -0.31 | Cc1ccc(C)c(OCC(=O)Nc2ccc3c(c2)OCO3)c1
19 | i | -0.18 | COc1ccc(N2CCN(C(c3cccs3)C(C)NS(=O)(=O)c3ccccc3)CC2)cc1 (stereo unspecified)
20 | i | 0.18 | COc1cccc(CN(C)C(=O)c2ccc(OCC(=O)Nc3cccc(C(F)(F)F)c3)c(OC)c2)c1
21 | i | 0.01 | Cc1sc2ncnc(OCC(=O)N3CCN(C(=O)c4ccco4)CC3)c2c1C
22 | i | 0.92 | Cc1ccc(OCC(=O)N2CCCCCCC2)cc1C
23 | i | -0.62 | CC1(C)NC(=O)N(CC(O)COc2cc3ccccc3cc2C(=O)N2CCCCC2)C1=O (stereo unspecified)
24 | i | 0.89 | C/C(=N\NC(=O)CNc1ccc(F)cc1)c1cc2ccccc2o1
25 | i | 0.72 | CC1=C(C(=O)OC(C)(C)C)C(c2ccc3ccccc3c2)NC(=O)N1C (stereo unspecified)
26 | i | 0.93 | COc1ccc(Cc2nnc(NC(=O)c3ccco3)s2)cc1
27 | -6.8* | 0.13* | COc1cc(N/N=C(\C)c2ccc(N)cc2)nc(-c2ccccc2)n1
28 | i | 1.9 | CC(=O)N1CCOc2ccc(S(=O)(=O)N3CCCC(C)C3)cc21 (stereo unspecified)
29 | i | 1.2 | Cc1ccc(-c2csc(N/N=C/c3ccco3)n2)cc1
30 | i | 0.33 | COc1cccc(C(CC(=O)O)NS(=O)(=O)c2ccc3c(c2)N(C(C)=O)CC(C)O3)c1 (stereo unspecified)
31 | i | -0.92 | CCCN(CC(=O)Nc1ccccc1C)C(=O)c1ccc(COc2ccccc2)cc1
32 | i | 0.52 | CCCCOc1cccc(C2/C(=C(\O)c3ccc4c(c3)OCCO4)C(=O)C(=O)N2CCN2CCOCC2)c1 (stereo unspecified)
33 | i | -2.2 | CCNC(=S)N1CCC(Cc2ccccc2)CC1
34 | i | -0.57 | COc1ccc(-c2csc(NCc3ccco3)n2)cc1C
35 | i | 0.24 | O=C(CCCc1ccccc1)NCCS(=O)(=O)N1CCN(c2ccc(F)cc2)CC1
36 | i | -0.54 | Cc1nc2c(ncn2-c2ccccc2)c(=O)n1NC(=O)CN1CCCCC1
37 | i | 1.4 | CN(C)c1ccc(-c2nnn(CC(=O)N3c4ccccc4CCc4ccccc43)n2)cc1
38 | i | 0.77 | O=C(CN(C(=O)c1ccc(Cl)cc1)N1C(=O)C2CCCCC2C1=O)c1ccc(Cl)cc1 (stereo unspecified)
39 | i | -3.1 | O=C(Nc1ccccc1Cl)NC1(C(=O)N2CCOCC2)CCCCC1
40 | i | 1 | Cc1cc(-c2nc3ncccc3o2)ccc1NC(=S)NC(=O)C(C)C
41 | i | -0.08 | CC(=O)Nc1cc(C(F)(F)F)ccc1OCC1CCCO1 (stereo unspecified)
42 | i | -2.4 | COc1ccc2occ(C(=O)c3ccc(N=C(C)N(C)C)cc3)c2c1
43 | i | 2.7 | CCN(CC)C(=O)c1cc(-c2ccc(Br)cc2)on1
44 | i | -1.5 | O=C(c1ccccc1)c1nn(-c2ccccc2)c2nnc(Cc3ccccc3)c(=O)n12
45 | i | -0.05 | O=C(Cn1cc[n+](CC(=O)c2ccc(Cl)cc2Cl)c1)c1ccc(Cl)cc1Cl

The last two entries of the section before are carried over, then new ones follow.
entry | KCNQ2 block | KCNQ2 block baseline | compound
44 | i | -1.5 | O=C(c1ccccc1)c1nn(-c2ccccc2)c2nnc(Cc3ccccc3)c(=O)n12
45 | i | -0.05 | O=C(Cn1cc[n+](CC(=O)c2ccc(Cl)cc2Cl)c1)c1ccc(Cl)cc1Cl
46 | i | -0.48 | COC(=O)c1ccc(CNC(=O)COc2ccccc2Br)o1
47 | i | 2 | CCN(CC)CCCNC(=S)N(CCCO)Cc1cc2cc3c(cc2[nH]c1=O)OCO3
48 | i | -0.39 | Clc1ccc(Cl)c(OCCN2CCOCC2)c1
49 | i | 0.52 | COc1ccccc1N1CCN(C(=O)C2CCC(CNS(=O)(=O)c3ccc(NC(C)=O)cc3)CC2)CC1 (stereo unspecified)
50 | i | 1.1 | O=C(Cc1ccccc1)Nc1cccc(NC(=O)c2ccccc2)c1
51 | i | 0.4 | Cn1c(-c2ccccc2)nc2cnccc21
52 | i | -1.1 | NNc1ccc(Cl)c(C(=O)O)c1
53 | i | 1.9 | C/C(=N/OC(=O)c1ccc(C)cc1)c1ccc(N2C(=O)C3CCCCC3C2=O)cc1 (stereo unspecified)
54 | i | -0.69 | COc1ccc(-c2noc(N3CCC(C(=O)NCCCN4CC(C)CC(C)C4)CC3)n2)cc1 (stereo unspecified)
55 | i | -0.67 | Cn1c(=O)[nH]c(=O)c2c1nc(N1CCCCC1)n2C/C=N/Nc1ccc(C(=O)O)cc1
56 | i | -1.3 | CC(C)(C)S(=O)(=O)c1cnc(-c2cnccn2)nc1N
57 | i | -0.86 | COc1ccccc1NC(=O)c1sc2ncn(CC(=O)N3CCC(C)CC3)c(=O)c2c1C
58 | i | 0.75 | CC(C)(C)c1ccc(C(=O)N2CCC(C(=O)NC3CCCCCC3)CC2)cc1
59 | i | 0.5 | O=C(C1CCN(S(=O)(=O)c2ccc(Br)cc2)CC1)N1CCOCC1
60 | i | 0.09 | Cc1cnc(SCCc2ccncc2)nc1C
61 | i | -1.1 | CCN(CC(=O)NCc1ccc(Cl)cc1)C(=O)COc1cccc(C(F)(F)F)c1
62 | i | 0.03 | COc1cc(NC(=O)CSc2nc(=O)n(CCN3CCOCC3)c3c2CCC3)cc(OC)c1
63 | i | -1.3 | O=C(CSc1cccc2cccc(Cl)c12)NCc1cccs1
64 | i | 0.94 | CC(C)CCNC(=O)CCc1nnc(COc2ccccc2)o1
65 | i | -0.68 | CCn1c(C)cc(/C=C2/SC(=O)N(C(C)C(=O)OC)C2=O)c1C (stereo unspecified)
66 | i | 0.55 | O=C(Cc1nn[nH]n1)c1ccccc1O
67 | i | 0.22 | CCCc1nc2c(s1)CCc1onc(-c3ccc(Cl)cc3)c1-2
68 | i | -0.15 | CCOC(=O)C1CCCCN1Cc1cn(C)nc1-c1ccccc1F (stereo unspecified)
69 | i | 0.18 | CCn1c(SCC(=O)c2cc(OC)ccc2OC)nnc1C1CC1
70 | i | -0.01 | Cc1cc(C)n(CCc2nc(-c3cc4ccccc4o3)cs2)n1
71 | i | -1.1 | Cc1ccccc1C(=O)NC(NCC1CCCO1)C(Cl)(Cl)Cl (stereo unspecified)
72 | i | -0.35 | O=C(CN1C(=O)NC2(CCCCCC2)C1=O)c1ccc2c(c1)OCCO2
73 | i | -0.71 | CCN1CCN(S(=O)(=O)c2ccc(OC)cc2)CC1
74 | i | -0.89 | CC(C)CCN1CCN(CCCc2ccccc2)CC1CCO (stereo unspecified)
75 | i | -0.72 | CC1(C)CC(=O)C(C2(O)C(=O)Nc3ccccc32)CO1 (stereo unspecified)
76 | i | 0.66 | O=C(/C=C/c1ccccc1)c1ccc2c(c1)OCCCCO2
77 | i | 0.4 | CCc1nc(-c2ccccc2)c2ccccn12
78 | i | 1.1 | COc1ccc(C(=O)/C=C/Nc2ccc([N+](=O)[O-])cc2)cc1
79 | i | 2.8 | O=C(CCC1CCCCC1)NCCN1C2=NC[C@H](Cc3ccccc3)N2C[C@H]1Cc1ccc(O)cc1
80 | i | 1.3 | O=C(COc1ccc(Br)cc1)NCCCNC(=O)c1cccnc1
81 | i | 0.83 | COc1ccc(NC(=O)/C(C#N)=C/c2ccc(-c3ccc(Cl)c(C(=O)O)c3)o2)cc1
82 | i | 0.99 | COc1ccc(C)cc1C1=Nc2ccccc2C1(C)C
83 | i | 0.18 | O=S(=O)(/N=C(/c1ccccc1)N1CCCCCC1)c1ccccc1
84 | i | 0.42 | CC(C)n1c(SCC(=O)NC2CC2)nnc1C1CC1
85 | i | -0.46 | C/C(=N\OC(=O)c1ccc(C)cc1)c1c(C)nc2cc(C)ccn12
86 | i | -0.26 | C/C(=N\Nc1cc(C)nc(NCc2ccccc2)n1)c1cccc([N+](=O)[O-])c1
87 | i | 0.47 | CN(C)C(CNC(=O)c1cc(S(=O)(=O)N(C)c2ccccc2)ccc1Cl)c1ccccc1 (stereo unspecified)
88 | i | 1.2 | COc1ccc(CC2(CO)CCN(Cc3nc(C(C)C)cs3)CC2)cc1
89 | i | 0.24 | CN1CCN(C(=O)c2cc3cc(Cl)ccc3[nH]2)CC1
90 | i | -0.01 | NC(=O)C1CCN(C(=O)c2ccc3c(=O)n(Cc4ccco4)c(SCc4ccc([N+](=O)[O-])cc4)nc3c2)CC1
91 | i | 0.53 | Cc1ccccc1CS(=O)(=O)c1cn(CC(=O)N2CCC(C)CC2)c2ccccc12
92 | i | 0.49 | CC(=O)c1ccc(NC(=O)C2CCN(S(=O)(=O)c3cccnc3)CC2)cc1
93 | i | -2.5 | CCOc1ccc(C2NC(=O)c3ccccc3O2)cc1 (stereo unspecified)
94 | i | 2.3 | O=C(NCCCn1ccnc1)/C(=C\c1ccc(Br)cc1)NC(=O)c1ccccc1F
95 | i | 1.1 | Fc1ccc(-n2c(-c3cc(C4CC4)[nH]n3)n[nH]c2=S)cc1Cl
96 | i | -0.82 | Cc1[nH]nc(Sc2ccccn2)c1[N+](=O)[O-]
97 | i | 1.1 | Cc1cc(=O)oc2cc(OCC(=O)N3CCN(c4ccc(F)cc4)CC3)ccc12
98 | i | 0.66 | COc1ccccc1N1CCN(CCN2C(=O)CC(=C3c4ccccc4-c4ccccc43)C2=O)CC1
99 | i | -2.1 | CCN1CCN(C(=O)C2CCC(=O)N(CCCN3CCCC3=O)C2)CC1 (stereo unspecified)
100 | i | -0.93 | Cc1cc(C)nc(NS(=O)(=O)c2ccc(NC(=O)C3(c4ccccc4)CCCC3)cc2)n1
101 | i | 2.3 | O=P1(c2ccccc2)C=Cn2c1cc1c2CCCC1 (stereo unspecified)
102 | i | 0.25 | O=C(NC1(C(F)(F)F)NC(=O)N(Cc2cccnc2)C1=O)c1ccccc1 (stereo unspecified)
103 | i | -0.2 | Cc1c(NC(=O)C(C)Sc2ncnc3ccccc23)c(=O)n(-c2ccccc2)n1C (stereo unspecified)
104 | i | -0.65 | O=C(N/N=C(\c1ccccc1)c1ccccn1)c1ccccc1Cl
105 | i | 0.06 | COc1cc(C2CC(=O)Oc3c2c(=O)n(C)c2ccccc32)ccc1O (stereo unspecified)

Part of the list above, with one line to a screen:
95: Fc1ccc(-n2c(-c3cc(C4CC4)[nH]n3)n[nH]c2=S)cc1Cl
105: COc1cc(C2CC(=O)Oc3c2c(=O)n(C)c2ccccc32)ccc1O (stereo unspecified)
screen / no. | 95 | 105
KCNQ2 block | i | i
KCNQ2 block baseline | 1.1 | 0.06

(further entries)
entry | KCNQ2 block | KCNQ2 block baseline | compound
106 | i | -0.03 | Cc1ccc(-n2c(SCC(N)=O)nnc2-c2ccccn2)cc1
107 | i | 0.01 | CC(=O)c1ccc(N2CCN(C(=O)c3c(-c4ccccc4Cl)noc3C)CC2)cc1
108 | i | 0.04 | CC(C)CCNC(=O)C1CCN(Cc2cccc(OCc3ccccc3)c2)CC1
109 | i | 0.02 | CN(C)c1nc(C(=O)Nc2ccccc2)nc(N(C)C)n1
110 | i | 0.48 | O=C(Nc1ccncc1)c1ccc(NS(=O)(=O)c2cccc(F)c2)cc1
111 | i | 0.17 | CCc1ccccc1NC(=O)N1CCCC(CCC(=O)N(C)CCc2ccccn2)C1 (stereo unspecified)
112 | i | 0.08 | O=C1CCc2cc(S(=O)(=O)N3CCC(C(=O)NC4CCCc5ccccc54)CC3)ccc2N1 (stereo unspecified)

From no. 104 as far as 109, as listed above:
entry | KCNQ2 block | KCNQ2 block baseline | compound
104 | i | -0.65 | O=C(N/N=C(\c1ccccc1)c1ccccn1)c1ccccc1Cl
105 | i | 0.06 | COc1cc(C2CC(=O)Oc3c2c(=O)n(C)c2ccccc32)ccc1O (stereo unspecified)
106 | i | -0.03 | Cc1ccc(-n2c(SCC(N)=O)nnc2-c2ccccn2)cc1
107 | i | 0.01 | CC(=O)c1ccc(N2CCN(C(=O)c3c(-c4ccccc4Cl)noc3C)CC2)cc1
108 | i | 0.04 | CC(C)CCNC(=O)C1CCN(Cc2cccc(OCc3ccccc3)c2)CC1
109 | i | 0.02 | CN(C)c1nc(C(=O)Nc2ccccc2)nc(N(C)C)n1
